TRPV1 potentiator – human TRPV1 potentiation; TRPV1-expressing cells, Fluo-8 calcium influx, capsaicin EC20 potentiation; host cell line not named in the record; control for the full effect not named in the record; 0.02% of 320,000 active; Q8NER1; potentiation, % at 8.33 µM; AID 540277; active means potentiation above 80%; inconclusive means 30% to 80%; inactive means below 30%; note: 0% is about no effect
Target sequence (Q8NER1 whole entry, looked up): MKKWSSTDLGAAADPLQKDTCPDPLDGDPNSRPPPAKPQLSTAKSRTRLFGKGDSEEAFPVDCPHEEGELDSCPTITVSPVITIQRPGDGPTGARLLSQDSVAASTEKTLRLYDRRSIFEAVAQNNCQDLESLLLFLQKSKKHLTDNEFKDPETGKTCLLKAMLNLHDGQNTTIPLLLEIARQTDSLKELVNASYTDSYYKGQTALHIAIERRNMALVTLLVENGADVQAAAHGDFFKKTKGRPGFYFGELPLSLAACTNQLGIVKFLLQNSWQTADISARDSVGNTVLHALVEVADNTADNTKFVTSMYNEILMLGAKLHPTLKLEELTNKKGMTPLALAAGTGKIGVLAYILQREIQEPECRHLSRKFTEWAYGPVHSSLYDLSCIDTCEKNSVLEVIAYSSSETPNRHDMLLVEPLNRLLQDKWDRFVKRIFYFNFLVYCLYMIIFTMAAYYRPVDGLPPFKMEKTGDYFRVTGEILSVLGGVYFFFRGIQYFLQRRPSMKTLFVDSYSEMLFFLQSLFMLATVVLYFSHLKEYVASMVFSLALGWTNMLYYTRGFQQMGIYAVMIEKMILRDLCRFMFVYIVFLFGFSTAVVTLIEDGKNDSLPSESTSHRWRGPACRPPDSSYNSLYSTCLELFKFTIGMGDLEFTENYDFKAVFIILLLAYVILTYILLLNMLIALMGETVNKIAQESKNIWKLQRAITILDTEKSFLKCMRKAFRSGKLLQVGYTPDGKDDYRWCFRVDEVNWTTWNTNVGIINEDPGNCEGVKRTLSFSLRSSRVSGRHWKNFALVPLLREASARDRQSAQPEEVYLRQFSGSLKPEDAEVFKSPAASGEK
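TRPV1-expressing cells were cultured overnight at 35.5C and loaded with Fluo-8 calcium dye for 40 to 90 min at room temperature. After a 10 s baseline, compound was added and calcium influx was read kinetically for 3 min (ex 480/em 520 nm).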
* = called active by the depositor; i = inactive; ? = inconclusive.

canonical_smiles,TRPV1 potentiator
CCOc1ccc(-c2nc(-c3ccc(OC)c(OC)c3)no2)cc1OCC,6
O=C(c1ccncc1)N1C2C=CC(C2)C1(C(F)(F)F)C(F)(F)F (stereo not given),8
COc1ccc(NC(=S)N(C(C)C)C2CCN(C(C)C)CC2)cc1Cl,21
CCOC(=O)c1c(NC(=O)CSc2nc3cc(Cl)ccc3s2)sc(C(C)=O)c1C,7
CC(C)c1ccc(C2C3CSCC=C3C(C#N)=C(N)C2(C#N)C#N)cc1 (stereo not given),0
O=c1[nH]c(=O)c2nc3ccccc3nc2[nH]1,-13
O=C(/C=C/c1ccc(F)cc1)Nc1nc2ccccc2[nH]1,-6
Cc1cc(C)nc(NC(=O)CSc2ncccn2)n1,9
CSc1cccc(NC(=O)c2ccccn2)c1,0
Cc1ccc(S(=O)(=O)NCCC(=O)N2CCCCC2)cc1,2
Cc1ccc(Cl)cc1N1CCN(C(=O)c2ccc3c(c2)CCN3S(C)(=O)=O)CC1,-3
CCCCC1=NC2(CCCC2)C(=O)N1Cc1ccc(-c2ccccc2-c2nn[nH]n2)cc1,10
c1ccc(Cc2ccc(OCCCNC3CCCC3)cc2)cc1,2
COc1ccc(CNc2cc(C)cc(C)c2)cc1OC,10
Cn1c(=O)c2[nH]c(N3CCN(c4ccccn4)CC3)nc2n(C)c1=O,19
COc1ccc(C(C#N)Nc2ccccc2)cc1 (stereo not given),-8
COc1cc([N+](=O)[O-])ccc1NC(=O)CSc1nc2ccccc2n1-c1ccccc1,-12
CCN1CCN(c2ncnc3c2oc2nc(C(C)C)c4c(c23)CCC4)CC1,-5
CCOC(=O)N1CCC(N(CCN(C)C)C(=S)Nc2ccc(OCC)cc2)CC1,-2
Cc1ccc2c(C)nc(NC3=NCN(CCc4ccccc4)CN3)nc2c1,8
C=CCn1c(-c2ccc(=O)n(Cc3ccccc3)c2)n[nH]c1=S,4
Cc1ccc(OCc2nnc(NC(=O)OCC(C)C)s2)c(C)c1,?
COC(=O)N/N=C(/c1ccccc1)C1CCCCC1,-7
Cc1nc(N)sc1C(=O)N/N=C/c1ccccc1[N+](=O)[O-],18
CN1c2ccccc2C(C)(C)C12CC(c1ccc(Cl)c(S(=O)(=O)N3CCCC3)c1)=NO2 (stereo not given),-1
C#CCOCCOCCOCCNc1nc(N2CCN(C(=O)[C@H](CCCCN)n3cc(C(N)CO)nn3)CC2)nc(N2CCN(C(=O)[C@H](CCC(=O)O)n3cc(C(N)CC(C)C)nn3)CC2)n1 (stereo not given in full),-22
CCCCC(=O)Nc1sc2c(c1-c1nc3ccccc3s1)CCN(C(C)=O)C2,12
COc1ccc(Cl)cc1Nc1nc(-c2sc(NC(=O)c3ccccc3)nc2C)cs1,-2
CCCCn1c(=S)[nH]c2ccc(N3CCOCC3)cc2c1=O,-1
COc1ccccc1-c1csc2ncnc(Sc3nnnn3C)c12,2

(listing goes on)
canonical_smiles,TRPV1 potentiator
CCOc1ccc2nc(NC3=NCN(Cc4ccco4)CN3)nc(C)c2c1,1
COc1ccc(C2C(C(C)=O)=C(O)C(=O)N2CCN(C)C)cc1OC (stereo not given),-2
O=C1[C@@H]2C3C=CC(O3)[C@@H]2C(=O)N1c1ccccc1,?
CCOc1ccc(/C=C2\N=C(c3cccs3)OC2=O)cc1OC,8
CCCc1nc2sc3c(=O)[nH]cnc3c2c2c1CCCC2,6
O=C(NC1CC1)c1ccc2c(c1)S(=O)(=O)c1cc(Cl)ccc1C2=O,-13
Cc1sc2nc(-c3cccs3)nc(N3CCCN(C)CC3)c2c1C,0
O=C(N/N=C/c1ccncc1)c1cccc([N+](=O)[O-])c1,-11
CNC(=O)c1cc2c(ccc3ccccc32)oc1=N,11
CSC1=C(C#N)C(c2ccccc2Cl)C2=C(CCCC2=O)N1 (stereo not given),3
C/C(=N\NC(=O)c1ccccn1)c1ccc(C(=O)O)s1,5
COc1ccc([C@]23Cc4cc(C#N)ccc4C(O2)c2c(c4ccc(OC)cc4oc2=O)O3)cc1,i
CN(Cc1ccco1)c1ncnc2ccc(-c3ccc4c(ccn4C)c3)cc12,-10
COc1ccc(-c2ccc(CNCc3ccccn3)o2)cc1Cl,-19
Cc1cc2c(c(=O)n1Cc1ccccc1)C1O[C@](CCCCN3C(=O)c4ccccc4C3=O)(Cc3cc(C#N)ccc31)O2,i
O=C(COc1cccc2ccccc12)Nc1cc(S(=O)(=O)N2CCOCC2)ccc1N1CCOCC1,3
COc1ccc(-c2nnc3n2N=C(c2ccccc2)CS3)cc1OC,-7
Cc1ccc(C)n1-c1ccc(C(=O)NCc2cccnc2)cc1,13
COc1ccc(C(=O)Nc2ccc3nc4n(c(=O)c3c2)CCCC4)cc1[N+](=O)[O-],-3
Cc1[nH]c(=O)[nH]c1CN1CCCCC1,-7
N#CC(C#N)=Cc1ccccc1OCc1ccccc1,-6
CCN1CCN(CCCCSc2ccccc2)CC1,-2
Cc1nc2ccccc2c(=O)n1/N=C/c1ccc([N+](=O)[O-])o1,-9
COc1ccc(C(CC(=O)N2CCN(c3ccccc3)CC2)c2c(OC)cc(OC)c3c(-c4ccccc4)cc(=O)oc23)cc1 (stereo not given),?
COc1ccccc1NC(=O)C1=C(C)NC(SCC(=O)c2ccc(C)cc2)=C(C#N)C1c1ccco1 (stereo not given),-3
COc1ccc(OC)c(NC(=O)C2C3CCC(O3)C2C(=O)O)c1 (stereo not given),17
O=C(OCc1nc2ccccc2s1)[C@@H]1CCCN1S(=O)(=O)c1ccccc1F,-11
O=C(O)CN1CCOCCOCCN(CC(=O)O)CCOCCOCC1,6
COc1ccc2c(c1)c(=O)oc1cc3oc(C)c(C)c3cc12,-6
CSc1nnc2n(Cc3ccccc3)c(=O)c3c4c(sc3n12)COC(C(C)C)C4 (stereo not given),-13

The list goes on (2 carried over from the part before).
canonical_smiles,TRPV1 potentiator
COc1ccc2c(c1)c(=O)oc1cc3oc(C)c(C)c3cc12,-6
CSc1nnc2n(Cc3ccccc3)c(=O)c3c4c(sc3n12)COC(C(C)C)C4 (stereo not given),-13
Cc1ccc2c(c1)c1ncnc(N3CCC4(CC3)OCCO4)c1n2C,2
CC(=O)Nc1ccc(S(=O)(=O)N2C(=O)c3cccc4cccc2c34)cc1,-4
CC(C)(C)C#CC(CCc1ccccc1)OS(N)(=O)=O (stereo not given),-17
Cc1ccc(C2=NN=C(NC(=O)CSc3nc(C)cc(C)n3)SC2)cc1,3
Cc1cc2cc(CCNC(=O)C3c4ccccc4Oc4ccccc43)c(=O)[nH]c2cc1C,2
O=C1c2ccccc2NC(c2ccc(-c3ccccc3F)o2)N1O (stereo not given),4
C#CCOCCOCCOCCNc1nc(N2CCN(C(=O)[C@H]([C@@H](C)CC)n3cc([C@@H](N)Cc4ccc(O)cc4)nn3)CC2)nc(N2CCN(C(=O)[C@H](CCCCN)n3cc([C@@H](N)CC(C)C)nn3)CC2)n1,13
CC(C)N1CC=C2C(C#N)=C(N)C(C#N)(C#N)[C@H](c3ccoc3)[C@H]2C1,4
C1CCN(c2nc(N3CCCC3)nc(N3CCNCC3)n2)C1,-2
COc1ccc(O[C@H]2C=C[C@@H](c3ccccc3)O[C@@H]2COC(=O)CC/C(C)=N/O[C@@H](C)CN2CCCCc3nc(C)c(C)cc32)cc1,4
Cn1c(SCC(=O)NCc2ccccc2)nc2c([nH]c3ccccc32)c1=O,3
COc1ccccc1/C=N/NC(=O)c1ccc(NC(=O)c2cccc([N+](=O)[O-])c2)cc1,-2
CC1Cc2ccccc2N1C(=O)CSc1nnc(-c2ccc(S(=O)(=O)N3CCCCC3)cc2)o1 (stereo not given),-3
O=C(CCc1ccc(S(=O)(=O)NCCc2ccccc2)cc1)N1CCN(Cc2ccc3c(c2)OCO3)CC1,2
Cc1nn(-c2ccccc2)c2sc(C(=O)OCN3C(=O)c4ccccc4C3=O)cc12,5
Cc1cc(C)nc(N2CCN(c3nc(C)cc(C)n3)CC2)n1,2
O=C(NCc1cccnc1)C(=O)Nc1nccs1,-10
O=C(O)c1cccnc1SC1CC(=O)N(c2cccc3ccccc23)C1=O (stereo not given),10
Cc1cccc(-n2c(SCc3cc(=O)n4c(C)cccc4n3)nc3[nH]ncc3c2=O)c1,9
COc1ccccc1C(=O)NNC(=S)NC(=O)c1cccs1,-5
O=C(Cn1c(COc2ccccc2)nc2ccccc21)Nc1cc(Cl)c(Cl)cc1Cl,-9
CC(C)[C@@H]1NC(=O)c2cc([N+](=O)[O-])cc(I)c2NCCCC[C@@H](C(=O)NC(CC(=O)O)C(N)=O)NC(=O)[C@H](CO)NC1=O (stereo not given in full),0
NC(=O)c1ccc(-c2noc(-c3ccccc3F)n2)cc1,-3
C/C(=C/CCC(C)C1CCC2(C)C3CCC4C(C)(C)C(=O)CCC4(C)C3=CCC12C)C(=O)O (stereo not given),-40
CCc1nnc(NS(=O)(=O)c2ccc(NS(=O)(=O)c3ccc(NC(C)=O)cc3)cc2)s1,9
CC(=O)OC[C@H]1O[C@@H](O/N=C(\C)CCN2CCCCc3nc(C)c(C)cc32)[C@H](OC(C)=O)[C@@H](OC(C)=O)[C@@H]1OC(C)=O,-1
CCN(CC)CCN(C(=O)c1ccc(N2C(=O)CCC2=O)cc1)c1nc2cc3c(cc2s1)OCO3,3
Cc1cccc(N2CSC3=C(C#N)C(c4ccc(C)o4)CC(=O)N3C2)c1 (stereo not given),6
Cc1ccccc1Nc1nnc(SCC(=O)NC(=O)Nc2ccc3c(c2)OCCO3)s1,7
COc1ccc2c(c1)c1ncnc(N3CCN(Cc4ccc5c(c4)OCO5)CC3)c1n2C,-5

New compounds follow:
canonical_smiles,TRPV1 potentiator
Cn1c(=O)c2c(ncn2CCCNC2=CC(C)(C)CC(=O)C2)n(C)c1=O,-6
COc1cccc([C@@H]2Oc3ccc(OC)cc3C(=O)[C@H]2OC(=O)NCc2ccc3c(c2)OCO3)c1,1
Cc1ccc(C)c(OCCCC(=O)Nc2ccc(N3CCOCC3)cc2)c1,21
O=c1oc2cc(OCc3ccc(F)cc3F)ccc2cc1-c1ccc2ccccc2n1,4
O=C(CSc1nnc(NC(=O)c2ccccc2Cl)s1)Nc1ccc2c(c1)oc1ccccc12,14
O=c1c2ccccc2cnn1Cc1n[nH]c(=S)n1-c1ccc(Cl)cc1Cl,0
O=C1NC(=S)N/C1=C/c1ccc(-c2c(Br)cc([N+](=O)[O-])cc2Br)o1,4
COc1cc(/C=C2/C(=O)N(c3ccccc3)N=C2C)ccc1OS(=O)(=O)c1ccccc1,-12
COC(=O)[C@@]1(Cc2ccc(OC)cc2)[C@H]2c3cc(C(=O)N4CCCC4)n(Cc4ccc(OC)c(OC)c4)c3C[C@H]2CN1C(=O)c1ccccc1,14
CCOc1ccccc1-c1nc2c(C(C)(C)C)nn(C)c2c(=O)[nH]1,1
C/C(=N\Nc1ccc([N+](=O)[O-])cc1[N+](=O)[O-])c1cc2c(ccc3ccccc32)oc1=O,-10
Cc1ccc(OCc2ccc(Br)cc2)c([N+](=O)[O-])n1,-19
COc1cccc(C2=CC(c3ccc(N(C)C)cc3)n3ncnc3N2)c1 (stereo not given),18
Cc1ccc2nc3nc(NCC4CCCO4)c(C(=O)NC4CCCCC4)cc3c(=O)n2c1 (stereo not given),3
Nc1c(C(=O)NCCc2ccc(Cl)cc2)sc2ccc(S(=O)(=O)N3CCCCC3)cc12,-1
Nc1nc2n(n1)C1(CCCCC1)C1=C(CCCC1)N2,10
Cn1nnnc1Sc1ncnc2scc(-c3ccccc3Cl)c12,-15
CCn1c(=N)c(S(=O)(=O)c2ccc(C)cc2)cc2c(=O)n3ccccc3nc21,-12
COC(=O)/C=C1/S/C(=N/N=C/c2ccc(N(C)C)cc2)NC1=O,-3
CCc1ccc(C(C(=O)NC2CCCCC2)N(C(=O)c2ccccn2)c2cccnc2)cc1 (stereo not given),0
CCCCOc1ccc(C(=O)NCCc2cccs2)cc1,-25
CN(C)c1ccc(/C=C2\C(=N)N3C(=NC2=O)Sc2cc(S(C)(=O)=O)ccc23)cc1,-9
COCCN1CN=C(Nc2nc(C)c3ccc(C)cc3n2)NC1,16
Fc1ccccc1/C=C1\CCCC2=C1Nc1ncnn1C2c1ccccc1F (stereo not given),18

Compounds listed so far that contain a cyano group:
canonical_smiles,TRPV1 potentiator
CC(C)c1ccc(C2C3CSCC=C3C(C#N)=C(N)C2(C#N)C#N)cc1 (stereo not given),0
COc1ccc(C(C#N)Nc2ccccc2)cc1 (stereo not given),-8
CSC1=C(C#N)C(c2ccccc2Cl)C2=C(CCCC2=O)N1 (stereo not given),3
COc1ccc([C@]23Cc4cc(C#N)ccc4C(O2)c2c(c4ccc(OC)cc4oc2=O)O3)cc1,i
Cc1cc2c(c(=O)n1Cc1ccccc1)C1O[C@](CCCCN3C(=O)c4ccccc4C3=O)(Cc3cc(C#N)ccc31)O2,i
N#CC(C#N)=Cc1ccccc1OCc1ccccc1,-6
COc1ccccc1NC(=O)C1=C(C)NC(SCC(=O)c2ccc(C)cc2)=C(C#N)C1c1ccco1 (stereo not given),-3
CC(C)N1CC=C2C(C#N)=C(N)C(C#N)(C#N)[C@H](c3ccoc3)[C@H]2C1,4
Cc1cccc(N2CSC3=C(C#N)C(c4ccc(C)o4)CC(=O)N3C2)c1 (stereo not given),6

Bioassay records deposited in PubChem BioAssay by National Center for Advancing Translational Sciences (NCATS).

Not all compounds are listed (hit frequency here may not be typical).
